Assay outcomes (PubChem)
Env fusion inh = blocks HIV Env-driven cell-cell fusion. HeLa-JRFL Env/CEM21 cell fusion, luciferase. inhibition, % at 12.3 µM. 360,000 tested, 1.1% active. AID 651610;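 active means mean replicate inhibition score of at least 50 and every replicate individually at or above 50; inconclusive means only one of the two criteria met; inactive means mean below 50 and not all replicates reaching 50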;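 further: 0% = plate neutral controls and 100% = maraviroc near 300 nM; one replicate is shown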
CSC inhib = cancer stem cell inhibition; cancer stem cell-like cells viability, luminescence; inhibition, % at 7.5 µM; 300,000 tested, 1.1% active;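 active means mean at 75% or more and at least half the replicates too; inconclusive means mean and replicates disagree; tested in HMLE shEcad cells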;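 further: 0% = median of negative and 100% = median of positive control wells; the first replicate is given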
Rce1 inhib = inhibitors of yeast Ras-converting enzyme. yeast membranes, quenched prenylated peptide cleavage fluorescence. calls only. 290,000 tested, 0.27% active;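 active means fall in fluorescence gain of 50% or more versus controls, with final raw signal at or below 3038400; inconclusive means same 50% fall but final raw signal above 3038400; inactive means fall in fluorescence gain under 50%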;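 further: plate controls were neutral control wells for no effect and wells lacking membranes for full effect; tested at 10 µM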
Target sequence (Q03530 whole entry, looked up): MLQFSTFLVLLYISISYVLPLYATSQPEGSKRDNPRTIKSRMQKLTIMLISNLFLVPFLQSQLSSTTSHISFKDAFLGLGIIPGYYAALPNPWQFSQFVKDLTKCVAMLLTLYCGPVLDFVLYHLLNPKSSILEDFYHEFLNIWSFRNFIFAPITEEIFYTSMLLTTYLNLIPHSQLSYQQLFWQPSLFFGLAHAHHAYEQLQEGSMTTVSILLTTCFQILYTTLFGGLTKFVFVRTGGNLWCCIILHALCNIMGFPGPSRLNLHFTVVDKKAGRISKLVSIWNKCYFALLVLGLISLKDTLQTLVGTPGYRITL
Yeast UUG start = alters start codon recognition fidelity in yeast; S. cerevisiae UUG-firefly luciferase reporter, luminescence/redox ratio; activity score, % at 18.7 µM; 350,000 tested, 0.13% active; AID 602363;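 active means replicate mean at a twofold rise or more, about +100% in these data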;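 further: firefly luciferase made from a UUG start codon reports start codon fidelity; reporter light over untreated wells divided by growth signal over untreated wells; some hits fall short of that in this replicate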
PABP FP inh = PABP-poly(A) binding inhibition. P11940. PABP-poly(A) RNA binding, fluorescence polarization. inhibition, % at 35 µM. 290,000 tested, 1% active. AID 2014;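 active means 50% or more with normal probe brightness, or confirmed in later tests; inconclusive means above 50% with abnormal brightness, or retests that disagree; inactive means below 50% or failed in later tests; about a fifth of its hits are not listed in these tables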;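 further: calls also rest on retests at 20 µM and on dose response follow-up; controls were probe without protein and protein plus probe with vehicle; some compounds called inactive have numbers as strong as hits; many hits fall short of the cut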
Target sequence (P11940 whole entry, looked up): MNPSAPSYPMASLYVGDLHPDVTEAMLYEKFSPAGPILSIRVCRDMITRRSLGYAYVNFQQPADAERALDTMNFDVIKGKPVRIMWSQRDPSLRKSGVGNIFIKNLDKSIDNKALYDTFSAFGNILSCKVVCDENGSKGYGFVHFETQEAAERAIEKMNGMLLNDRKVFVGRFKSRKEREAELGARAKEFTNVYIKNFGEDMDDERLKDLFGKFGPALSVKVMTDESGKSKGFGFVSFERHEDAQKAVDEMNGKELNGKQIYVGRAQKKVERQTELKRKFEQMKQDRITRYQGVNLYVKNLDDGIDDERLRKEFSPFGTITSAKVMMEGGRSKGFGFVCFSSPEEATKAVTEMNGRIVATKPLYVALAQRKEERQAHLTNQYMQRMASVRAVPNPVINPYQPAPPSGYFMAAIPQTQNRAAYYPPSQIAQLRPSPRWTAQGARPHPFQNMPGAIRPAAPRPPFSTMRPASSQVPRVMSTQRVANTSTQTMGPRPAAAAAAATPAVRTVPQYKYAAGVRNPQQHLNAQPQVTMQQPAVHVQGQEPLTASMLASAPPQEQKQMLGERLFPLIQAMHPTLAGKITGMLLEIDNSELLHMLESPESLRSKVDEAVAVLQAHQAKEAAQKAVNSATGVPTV
eIF4H inh = inhibitors of RNA binding by human eIF4H | AID 2012 | inhibition, % at 35 µM | 290,000 tested, 0.94% active | eIF4H fluorescence polarization binding assay | Q15056;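 active means 50% or more with normal probe brightness, or confirmed in later tests; inconclusive means above 50% with abnormal brightness, or retests that disagree; inactive means below 50% or failed in later tests; about a fifth of its hits are not listed in these tables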;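 further: calls also rest on retests at 20 µM and on dose response follow-up; 0% = protein and probe with vehicle and 100% = probe without protein; strong numbers were not always called active; many hits fall short of the cut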
MT1-MMP act inh = inhibitors of human MT1-MMP activation; P50281; HT1080 RFP-PRO-GFP cells, GFP/RFP ratio fluorescence, overnight; percent of plate control window, DMSO zero; GFP/RFP ratio change, % at 20 µM; 360,000 tested, 0.061% active;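 active means GFP/RFP ratio change of at least 30% with cell ATP level not reduced by more than half and red fluorescence within 50% of control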; further: strong numbers were not always called active
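Test system: HT1080 cells expressing an RFP-PRO-GFP fluorescent reporter construct / Compound dosing: single-point 20 µM compound, 1% DMSO / Schedule: cells overnight before dosing, compound overnight, 37 °C, 5% CO2 / Evaluation: GFP/RFP fluorescence ratio / Control set: DMSO and RFP-L50D-GFP cell wells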
eIF4H inh retest = recorded beside eIF4H inh, whose call it bears; inhibition, %; compound at 20 µM; confirmation average;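 mean of two retest wells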
PABP FP inh retest = recorded beside PABP FP inh, whose call it bears; inhibition, %; compound at 20 µM; confirmation repeats;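 mean of two retest wells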
MT1-MMP act inh RFP = recorded beside MT1-MMP act inh, whose call it bears; RFP signal change, %; measured here: RFP expression control read;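 0 = vehicle wells; hits needed this value within 50% of zero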
* = called active by the depositor.

COc1ccc(N2CC(O)(c3ccc(C)cc3)[N+]3=C2CCCC3)cc1 (stereo not given) was read as Env fusion inh 17, CSC inhib -5, Rce1 inhib inactive, PABP FP inh 4, eIF4H inh -10, MT1-MMP act inh 1 and MT1-MMP act inh RFP 2.
Screening N#CC1=C(SCC(=O)Nc2ccc(C(=O)O)cc2)NC(=O)CC1c1ccco1 (stereo not given) returned Env fusion inh -5, CSC inhib -17, Rce1 inhib inactive, Yeast UUG start -11, PABP FP inh 16, eIF4H inh 26, MT1-MMP act inh -7 and MT1-MMP act inh RFP 3.
Screening N#CCCN(C(=O)COC(=O)C1=NNC(=O)CC1)c1ccccc1 returned Env fusion inh -7, CSC inhib 4, Rce1 inhib inactive, Yeast UUG start 4, MT1-MMP act inh 5 and MT1-MMP act inh RFP 4.
Screening O=C(O)c1cc2nc(-c3cccs3)cc(C(F)(F)F)n2n1 returned Env fusion inh 23, CSC inhib -14, Rce1 inhib inactive, Yeast UUG start -28, PABP FP inh 30, eIF4H inh 9, MT1-MMP act inh 6 and MT1-MMP act inh RFP -3.
For Nc1nnc(SCC(=O)Nc2cc(S(=O)(=O)N3CCOCC3)ccc2Cl)s1 the results were Env fusion inh 4, CSC inhib -9, Rce1 inhib inactive, Yeast UUG start -33, PABP FP inh 10, eIF4H inh -3, MT1-MMP act inh 5 and MT1-MMP act inh RFP 2.
`CCN(CC)C1CCN(C(=O)c2ccc3nc(Cc4ccc(OC)cc4)oc3c2)C1` (stereo not given) gave Env fusion inh -3, Rce1 inhib inactive, Yeast UUG start -18, PABP FP inh 5, eIF4H inh -2, MT1-MMP act inh -1 and MT1-MMP act inh RFP 4.
`Cc1ccc(C(=O)CCC(=O)Nc2ccccc2F)cc1` gave Env fusion inh -29, Rce1 inhib inactive, Yeast UUG start -5, PABP FP inh 4, eIF4H inh 4, MT1-MMP act inh -3 and MT1-MMP act inh RFP -3.
`O=c1nc(N2CCCCC2)nc(Nc2ccccc2)[nH]1` gave Env fusion inh -8, CSC inhib -6, Rce1 inhib inactive, PABP FP inh -8, eIF4H inh 7, MT1-MMP act inh 4 and MT1-MMP act inh RFP 3.
`COC(=O)C(Cc1ccccc1)OS(N)(=O)=O` (stereo not given) gave Env fusion inh 4, CSC inhib 3, Rce1 inhib active, Yeast UUG start -23, PABP FP inh 7, eIF4H inh -10, MT1-MMP act inh 0 and MT1-MMP act inh RFP 1.
Screening Cc1cc(C)c2c(CN(C)Cc3ccccc3)cc(=O)oc2c1 returned Env fusion inh -16, Yeast UUG start -1, MT1-MMP act inh 2 and MT1-MMP act inh RFP 0.
CC(=O)NC1C(=O)N(Cc2ccccc2)c2ccc(Br)cc21 (stereo not given) was read as Env fusion inh -116, CSC inhib 5, Rce1 inhib inactive, PABP FP inh 8, eIF4H inh 1, MT1-MMP act inh -3 and MT1-MMP act inh RFP 3.
For CCC1CCCCN1C(=O)COC(=O)CN(C)S(=O)(=O)c1ccc(NC(C)=O)cc1 (stereo not given) the results were Env fusion inh 9, CSC inhib -5, Rce1 inhib inactive, MT1-MMP act inh -3 and MT1-MMP act inh RFP -1.

The final 2 compounds of the section before open the next one:
CC(=O)NC1C(=O)N(Cc2ccccc2)c2ccc(Br)cc21 (stereo not given) was read as Env fusion inh -116, CSC inhib 5, Rce1 inhib inactive, PABP FP inh 8, eIF4H inh 1, MT1-MMP act inh -3 and MT1-MMP act inh RFP 3.
For CCC1CCCCN1C(=O)COC(=O)CN(C)S(=O)(=O)c1ccc(NC(C)=O)cc1 (stereo not given) the results were Env fusion inh 9, CSC inhib -5, Rce1 inhib inactive, MT1-MMP act inh -3 and MT1-MMP act inh RFP -1.
For CCC(=O)NNc1ncnc2c1cnn2-c1ccccc1 the results were Env fusion inh 14, CSC inhib 4, Rce1 inhib inactive, Yeast UUG start -1, PABP FP inh 0, eIF4H inh 3, MT1-MMP act inh 2 and MT1-MMP act inh RFP 0.
Screening COc1ccc2[nH]c(=O)c(CN(CCc3ccccc3)Cc3nnnn3CC3CCCO3)cc2c1 (stereo not given) returned CSC inhib 5, Rce1 inhib inactive, Yeast UUG start -8, PABP FP inh 29, eIF4H inh 6, MT1-MMP act inh 1 and MT1-MMP act inh RFP 0.
Screening COc1ccc(C(=O)c2sc(Nc3cccc(OC)c3)c(C(=O)Nc3cccc(C)c3C)c2N)cc1 returned Env fusion inh -7, CSC inhib -5, Rce1 inhib inactive, Yeast UUG start -17, PABP FP inh 4, eIF4H inh -7, MT1-MMP act inh 1 and MT1-MMP act inh RFP -9.
O=C(Nc1nc2ccccc2n1CCN1CCCC1)c1ccc(Cl)cc1 was read as CSC inhib 22, Yeast UUG start -17, PABP FP inh -3, eIF4H inh -6, MT1-MMP act inh 4 and MT1-MMP act inh RFP 3.
`CCOC(=O)C1CCN(c2nc3ccccc3n2CC(=O)c2ccccc2)CC1` gave Env fusion inh 6, CSC inhib -4, Rce1 inhib inactive, PABP FP inh -12, eIF4H inh 16, MT1-MMP act inh -5 and MT1-MMP act inh RFP -2.
For COc1cccc(N/C(N)=N/c2nc(CSc3ccccn3)cc(=O)[nH]2)c1 the results were CSC inhib 6, Rce1 inhib inactive, PABP FP inh -12 and eIF4H inh 4.
CCCCn1c(N)c(N(CC)C(=O)c2ccc([N+](=O)[O-])c(C)c2)c(=O)[nH]c1=O was read as Env fusion inh 14, CSC inhib 14, Yeast UUG start -14, PABP FP inh 10, eIF4H inh 8, MT1-MMP act inh 4 and MT1-MMP act inh RFP 3.
For Cc1nc([N+](=O)[O-])c(C(=O)OCc2ccc(C#N)cc2)n1C the results were Env fusion inh 11, CSC inhib -2, Rce1 inhib inactive, PABP FP inh 1, eIF4H inh 8, MT1-MMP act inh -4 and MT1-MMP act inh RFP -4.
For Cc1cccc(NC(=O)C(C)SCc2ccccc2)c1 (stereo not given) the results were Env fusion inh 2, CSC inhib -13, Rce1 inhib inactive, Yeast UUG start -1, PABP FP inh 6, eIF4H inh -4, MT1-MMP act inh 5 and MT1-MMP act inh RFP -7.
CC(=O)c1cccc(Nc2ccc(C#N)cc2)c1 was read as Env fusion inh -3, Yeast UUG start -7, MT1-MMP act inh 0 and MT1-MMP act inh RFP -3.
`COC(=O)c1c(SCc2ccc(C#N)cc2)nc(=O)[nH]c1C` gave Env fusion inh -12, CSC inhib 0, Rce1 inhib inactive, PABP FP inh -5, eIF4H inh -7, MT1-MMP act inh 0 and MT1-MMP act inh RFP 2.
`O=S(=O)(CCN1C=CC(C(F)(F)F)=NCC1)c1ccc(Cl)cc1Cl` gave Env fusion inh 11, CSC inhib 1, Rce1 inhib inactive, Yeast UUG start 65, PABP FP inh 3, eIF4H inh -5, MT1-MMP act inh 2 and MT1-MMP act inh RFP 4.
For CC(OC(=O)c1cn(-c2ccccc2)nc1-c1cccnc1)C(N)=O (stereo not given) the results were Env fusion inh 3, CSC inhib -10, Rce1 inhib inactive, PABP FP inh 15, eIF4H inh 0, MT1-MMP act inh -2 and MT1-MMP act inh RFP 8.
Screening CCOC(=O)N1CCN(C(=O)C2CCN(S(C)(=O)=O)CC2)CC1 returned CSC inhib -9, Rce1 inhib inactive, Yeast UUG start 15, PABP FP inh -2, eIF4H inh -6, MT1-MMP act inh 4 and MT1-MMP act inh RFP 9.
CC(C)OCCCNC(=S)Nc1ccc2nc3n(c(=O)c2c1)CCCCC3 was read as Env fusion inh -4, CSC inhib 13, Rce1 inhib inactive, PABP FP inh -5, eIF4H inh -8, MT1-MMP act inh 4 and MT1-MMP act inh RFP -3.
Screening C=CCc1cccc(C=Nc2cc(Br)ccc2O)c1O returned CSC inhib 9, Rce1 inhib inactive, Yeast UUG start -12, PABP FP inh -4, eIF4H inh 78*, MT1-MMP act inh 10, eIF4H inh retest 64*, PABP FP inh retest 16 and MT1-MMP act inh RFP -3.
CCN(CC)S(=O)(=O)c1ccc2c(c1)c(=O)c(C(=O)NCc1ccco1)cn2C was read as Env fusion inh 30, CSC inhib 3, Rce1 inhib inactive, PABP FP inh -2, eIF4H inh -6, MT1-MMP act inh -1 and MT1-MMP act inh RFP 0.
CN(C)C(CNc1ccc(S(C)(=O)=O)cc1[N+](=O)[O-])Cc1ccccc1 (stereo not given) was read as Env fusion inh 12, CSC inhib 10, Rce1 inhib inactive, Yeast UUG start -16, PABP FP inh 0, eIF4H inh 1, MT1-MMP act inh -3 and MT1-MMP act inh RFP 0.
For O=C(CCSc1ccccc1)Nc1nccs1 the results were Env fusion inh -52, CSC inhib -5, Rce1 inhib inactive, PABP FP inh 4, eIF4H inh 4, MT1-MMP act inh -2 and MT1-MMP act inh RFP -1.
Screening O=C(Cc1cccs1)N1CCC(c2nc3c(nnn3Cc3ccccc3)c(=O)[nH]2)CC1 returned Env fusion inh 1, CSC inhib -9, Rce1 inhib inactive, Yeast UUG start 3, PABP FP inh 6, eIF4H inh -14, MT1-MMP act inh -1 and MT1-MMP act inh RFP -3.
For Cc1ccc(S(=O)(=O)Nc2nc(C)cc(-n3nc(C)cc3C)n2)cc1 the results were Env fusion inh 5, CSC inhib -6, Rce1 inhib inactive, Yeast UUG start 8, PABP FP inh -7, eIF4H inh -5, MT1-MMP act inh 1 and MT1-MMP act inh RFP 5.
For COc1ccc(CCNC(=O)CSc2nc3ccsc3c(=O)n2CC2CCC(C(=O)O)CC2)cc1OC (stereo not given) the results were Env fusion inh -2, CSC inhib 9, Rce1 inhib inactive, Yeast UUG start -7, PABP FP inh -3, eIF4H inh -5, MT1-MMP act inh 3 and MT1-MMP act inh RFP 5.
`COc1cc(NC(=O)CN2C(=O)COc3ccc(S(=O)(=O)N4CCOCC4)cc32)cc(OC)c1` gave Env fusion inh 10, CSC inhib -8, Rce1 inhib inactive, Yeast UUG start -10, MT1-MMP act inh 1 and MT1-MMP act inh RFP 2.
Screening CCN(CC)C(=O)Cn1cc(S(=O)(=O)Cc2cccc([N+](=O)[O-])c2)c2ccccc21 returned Env fusion inh 4, CSC inhib -10, Rce1 inhib inactive, Yeast UUG start 14, PABP FP inh 7, eIF4H inh 1, MT1-MMP act inh 0 and MT1-MMP act inh RFP -3.
For Cc1ccc(CNC(=O)CN2CCN(Cc3ccc(C)cc3)C2=O)cc1 the results were CSC inhib 1, Rce1 inhib inactive, Yeast UUG start -4, PABP FP inh 0, eIF4H inh 12, MT1-MMP act inh 0 and MT1-MMP act inh RFP 3.
Cc1cc(CN(C)C(=O)c2cc(COc3ccc(C)c(C)c3)on2)n[nH]1 was read as Env fusion inh -1, CSC inhib 1, Rce1 inhib inactive, Yeast UUG start -6, PABP FP inh 8, eIF4H inh -4, MT1-MMP act inh 7 and MT1-MMP act inh RFP 0.
For Cc1onc(C(=O)NCc2ccc(F)cc2)c1[N+](=O)[O-] the results were Env fusion inh 3, CSC inhib -4, Rce1 inhib inactive, PABP FP inh inconclusive, eIF4H inh 5, MT1-MMP act inh 6 and MT1-MMP act inh RFP 1.
`O=C(c1[nH]c(C(F)(F)F)nc1-c1ccccc1)N1CCN(c2ccncc2)CC1` gave Env fusion inh -39, Yeast UUG start -15, MT1-MMP act inh 1 and MT1-MMP act inh RFP 3.
`Nc1nnc(-c2ccccc2F)s1` gave Env fusion inh -13, CSC inhib 22, Rce1 inhib inactive, PABP FP inh 6, eIF4H inh -1, MT1-MMP act inh -2 and MT1-MMP act inh RFP -2.
N#C/C(=C\c1ccc2c(c1)OCO2)C(N)=S was read as Env fusion inh 6, CSC inhib -10, Rce1 inhib inactive, Yeast UUG start -18, PABP FP inh -4, eIF4H inh 0, MT1-MMP act inh -3 and MT1-MMP act inh RFP 2.
